gsp agonist: activates gsp, the McCune-Albright syndrome mutation. Potency, µM (doses to about 76.9 µM), for the others: at the top dose activation (cAMP increase), most hits filed as activators. gsp mutant cells, cAMP HTRF, 30 min; control for the full effect not named in the record. AID 624287. 0.13% of 340,000 active; active = well fitted activation curve with a large enough effect; inconclusive = small, poorly fitted or top-dose-only effect, or another doubt; inactive = no such curve, though single readings can be large or run the other way; cell line not stated here;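 note: phosphodiesterase inhibitor Ro 20-1724 added with compounds to block cAMP breakdown; potency is the fitted concentration of half-maximal effect; nearly all actives have a fitted effect of over 60% in size; about a fifth of the inactives were tested at one dose only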
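Cells in DMEM/10% FBS with G418 were pretreated with compounds in DMSO plus […] (300 uM stock) for 30 min at 37C. cAMP was measured by HTRF (cAMP-d2 plus anti-cAMP antibody-K) after 30 min at room temperature.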
TRPML1 agonist: activates the human TRPML1 channel | 0.12% of 410,000 active | activation, % (concentration not given with the values) | Q9GZU1 | TRPML1-expressing cells, Ca2+ dye fluorescence, FDSS; host cell line not named in the record; reference of the full effect not given here; in the data active = activation above about 50%; inconclusive = about 30% to 50%; inactive = below about 30%; note: 0% is about no effect; the text of the record puts the active cut at 80%
Target sequence (Q9GZU1 whole entry, looked up): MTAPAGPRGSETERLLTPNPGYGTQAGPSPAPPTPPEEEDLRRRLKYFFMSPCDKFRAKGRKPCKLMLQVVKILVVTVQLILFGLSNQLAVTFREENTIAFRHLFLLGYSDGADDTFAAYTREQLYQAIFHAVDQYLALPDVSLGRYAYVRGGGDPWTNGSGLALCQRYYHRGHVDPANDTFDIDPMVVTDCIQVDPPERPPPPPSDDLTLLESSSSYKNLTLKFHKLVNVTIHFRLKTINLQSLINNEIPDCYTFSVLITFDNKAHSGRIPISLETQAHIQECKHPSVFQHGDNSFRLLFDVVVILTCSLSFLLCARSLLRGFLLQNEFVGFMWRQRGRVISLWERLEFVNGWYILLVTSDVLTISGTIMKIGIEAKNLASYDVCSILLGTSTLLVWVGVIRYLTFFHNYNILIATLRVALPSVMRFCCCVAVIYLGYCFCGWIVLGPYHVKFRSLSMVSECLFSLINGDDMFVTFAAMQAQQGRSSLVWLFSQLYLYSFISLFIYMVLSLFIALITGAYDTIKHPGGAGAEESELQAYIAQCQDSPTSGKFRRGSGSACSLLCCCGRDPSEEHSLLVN
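In this qHTS format, compounds were pin-transferred onto Ca8-dye-loaded TRPML1-DL cells induced with Tet overnight, and intracellular Ca2+ fluorescence was recorded kinetically for 110 s after a 10 s baseline. A subsequent 4uM final 54-4 (EC80) addition followed by a second 110 s read served as the antagonist phase.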
gsp antagonist: gsp mutant antagonism; gsp-mutant cells, cAMP HTRF, 30 min; control for the full effect not named in the record; Potency, µM (highest dose often 76.9 µM), inactives show top-dose activity change, negative = inhibition, usual class: inhibitors; 0.4% of 340,000 active; active = falling curve of any shape with a large fitted effect; inconclusive = falling curve, mostly with a smaller effect; inactive = flat or rising curve; cell line not stated here;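 note: intracellular cAMP measured with PDE inhibitor Ro 20-1724 present during compound exposure; potency is the fitted concentration of half-maximal effect; % is set by controls: 0 for no effect and ±100 for the full control effect; nearly all actives have a fitted effect of over 65% in size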
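Cells, 2000/well, grown 16–24 h in DMEM 10% FBS with 0.5 mg/ml G418, then compounds plus […] (300 uM addition stock), 30 min at 37C. cAMP read by HTRF (cAMP-d2 and anti-cAMP antibody-K in lysis buffer) after 30 min RT.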
Menin MLL FP FL: displaces fluorescein MLL peptide from human menin; 290,000 tested, under 10 active; Fluorescence polarization, fluorescein-MLL peptide displacement from menin; AID 1766; FP activity change, % at 61.4 µM; inconclusive = falling polarisation curve, or a change in total fluorescence; inactive = total fluorescence flat and polarisation flat or rising; no compound was filed as active; the % refers to the polarisation; negative = inhibition;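 note: % of control where 0% means no effect; inhibitors lower the polarisation; unlabelled MLL peptide was the positive control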
TRPML1 inh: inhibitors of human TRPML1 channel. 0.02% of 390,000 active. activity change, negative = inhibition, % (no concentration beside the values). TRPML1-inducible cells, Ca2+ dye fluorescence, FDSS; stronger effect = lower value; inhibition of EC80 agonist-evoked calcium signal; in the data active means activity change below about -50%; inconclusive means about -30% to -50%; inactive means above about -30%;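 note: stimulus is agonist 54-4 at its EC80 concentration; % is set by controls: 0 for no effect and ±100 for the full control effect; compound concentration not given in the record; the text of the record puts the active cut at -80%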
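Calcium fluorescence in TRPML1-DL cells induced overnight with Tet: a 110 s read after compound pin addition, then a 110 s antagonist read after challenge with 54-4 at 4 uM final (EC80).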
ClpP mod: qHTS Assay for Activators of ClpP; purified B. subtilis ClpP, FRET peptide cleavage, 20 min; Potency, µM (doses to about 57.5 µM), for inactives: at the highest dose activity change, negative = active; ATP-dependent Clp protease proteolytic subunit (Bacillus subtilis (strain 168)), P80244; 1.9% of 340,000 active; active = well fitted falling curve with a large enough effect; inconclusive = small, poorly fitted or top-dose-only effect; inactive = no such curve, though single readings can be large or run the other way; note: potency is the fitted concentration of half-maximal effect; the source files actives as falling curves though it sought activators and does not explain the sign; nearly all actives have a fitted effect of over 65% in size; many hits overshoot -100%
Target sequence (P80244 whole entry, looked up): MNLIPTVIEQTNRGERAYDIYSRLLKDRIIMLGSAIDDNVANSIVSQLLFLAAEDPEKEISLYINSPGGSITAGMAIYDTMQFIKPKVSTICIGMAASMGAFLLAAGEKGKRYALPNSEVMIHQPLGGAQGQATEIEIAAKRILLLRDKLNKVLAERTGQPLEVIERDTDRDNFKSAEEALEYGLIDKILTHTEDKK
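FRET quenching reversal measured ClpP activation: 10 microg/mL B. subtilis ClpP at pH 8 with the FRET-FV decapeptide, read at 430 nm after 320 nm excitation. The 20-min minus 0-min signal was scaled between DMSO/no-enzyme wells and ADEP (5.8 microM final).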
Starred values were filed as active, the others as inactive; [ ] = dose if it differs, or a comment.

What do the screens show for `Cc1nn(C)c(C)c1NC(=O)c1ccccc1NC(=O)Nc1ccccc1`?
gsp agonist: 36%; TRPML1 agonist: 1.0; gsp antagonist: 9%; Menin MLL FP FL: 1.1; TRPML1 inh: 12; ClpP mod: -0.4%

What do the screens show for `COc1ccc2c3n(nc2c1)CCN=C3c1ccc(Cl)cc1`?
TRPML1 agonist: -0.3; gsp antagonist: 1%; TRPML1 inh: 2; ClpP mod: -0.7%

How did COc1ccc(Br)cc1CN(C)C(=O)c1cnc(C)cn1 do in these assays?
gsp agonist: 10%; TRPML1 agonist: -0.3; gsp antagonist: 0%; Menin MLL FP FL: -3.1; TRPML1 inh: 9; ClpP mod: -2.1%

How did Cc1cc(C(=O)NCCc2ccc(Cl)cc2)c2ccccc2n1 do in these assays?
gsp agonist: 4%[15.4 µM]; TRPML1 agonist: -0.3; gsp antagonist: -3%; Menin MLL FP FL: 2.5; TRPML1 inh: 7; ClpP mod: -3.3%

Results for CC(C)C(=O)Nc1ccc(O)c(-c2csc(N)n2)c1 ?
gsp agonist: -6%[15.4 µM]; TRPML1 agonist: 1.0; gsp antagonist: -2%; Menin MLL FP FL: -0.9; TRPML1 inh: 31

Results for O=C(NCCc1ccccc1)c1c[nH]c2c(F)cccc2c1=O ?
gsp agonist: -9%[15.4 µM]; TRPML1 agonist: 1.1; gsp antagonist: 0%; Menin MLL FP FL: -4.3; TRPML1 inh: -7; ClpP mod: -1.4%

How did O=C(O)CSCC(=O)N1CCN(Cc2ccc3c(c2)OCO3)CC1 do in these assays?
gsp agonist: -2%[15.4 µM]; TRPML1 agonist: -1.0; gsp antagonist: 16%; Menin MLL FP FL: -0.7; TRPML1 inh: 2; ClpP mod: -0.1%

Results for Cc1csc(=O)n1CC(=O)Nc1ccc(Cl)cc1F ?
gsp agonist: -25%; TRPML1 agonist: -0.3; gsp antagonist: 0%; TRPML1 inh: 1; ClpP mod: -1.2%

How did O=C(NN(Cc1ccccc1)Cc1ccccc1)c1ccccc1 do in these assays?
gsp agonist: 16%; TRPML1 agonist: -0.8; gsp antagonist: -10%; TRPML1 inh: -2

Results for CCOc1ccc(NC(=O)CCc2c(C)nc3cc(-c4ccc(Cl)cc4)nn3c2C)cc1 ?
TRPML1 agonist: -0.2; TRPML1 inh: 43; ClpP mod: -17%

Grouped by structure, those above containing four or more nitrogen atoms (2)
What do the screens show for `Cc1nn(C)c(C)c1NC(=O)c1ccccc1NC(=O)Nc1ccccc1`?
gsp agonist: 36%; TRPML1 agonist: 1.0; gsp antagonist: 9%; Menin MLL FP FL: 1.1; TRPML1 inh: 12; ClpP mod: -0.4%

Results for CCOc1ccc(NC(=O)CCc2c(C)nc3cc(-c4ccc(Cl)cc4)nn3c2C)cc1 ?
TRPML1 agonist: -0.2; TRPML1 inh: 43; ClpP mod: -17%

Later entries
Results for COc1ccc(NC(=O)c2cc(-c3ccco3)on2)c(OC)c1 ?
gsp agonist: -9%[15.4 µM]; TRPML1 agonist: 0.1; gsp antagonist: 11%; Menin MLL FP FL: -17; TRPML1 inh: 6

How did Cc1oc(-c2cccc(Cl)c2)nc1CN(C)C1CCOC1 (configuration not stated) do in these assays?
gsp agonist: 6%[15.4 µM]; TRPML1 agonist: -0.3; gsp antagonist: 0%; Menin MLL FP FL: -0.2; TRPML1 inh: 40

What do the screens show for `Cc1c(Cl)cccc1NC(=O)CCS(=O)(=O)c1cccc2nonc12`?
gsp agonist: 14%[15.4 µM]; TRPML1 agonist: 0.6; gsp antagonist: 6%; Menin MLL FP FL: 5.5; TRPML1 inh: -5

How did CC(=O)N1CCc2c(sc3c2c(=O)n(-c2ccc(F)cc2)c(=O)n3Cc2cc(C)ccc2C)C1 do in these assays?
TRPML1 agonist: -0.4; TRPML1 inh: -3; ClpP mod: 0.4%

What do the screens show for `CC(=O)c1nn(-c2ccc(OC(F)(F)F)cc2)nc1Nc1ccc(Cl)cc1`?
TRPML1 agonist: -0.4; TRPML1 inh: 11; ClpP mod: 2.8%

How did COc1ccccc1C(=O)Nc1cccc(OCc2cc(=O)n3ccccc3n2)c1 do in these assays?
TRPML1 agonist: 0.5; TRPML1 inh: 23; ClpP mod: -6.8%

How did CC1(C)N=C(c2ccc(F)cc2)C(=O)N1CC(=O)Nc1ccccc1Cl do in these assays?
TRPML1 agonist: -0.4; TRPML1 inh: -4; ClpP mod: 0.1%

Results for Cc1cccc(NC(=O)CSc2nccn2Cc2ccc(F)cc2)c1C ?
TRPML1 agonist: 0.9; TRPML1 inh: 12; ClpP mod: -1.2%

Results for COC(=O)c1cccc(NC(=O)NC2CCCN2S(=O)(=O)c2ccc(Cl)cc2)c1 (configuration not stated) ?
gsp agonist: -4%; TRPML1 agonist: -1.3; gsp antagonist: inconclusive; Menin MLL FP FL: -0.5; TRPML1 inh: 4; ClpP mod: -11%

Results for Cc1cc(C)cc(NC(=O)COC(=O)COc2ccc(N(C)S(=O)(=O)c3cccs3)cc2)c1 ?
gsp agonist: 0%[15.4 µM]; TRPML1 agonist: -0.1; gsp antagonist: 4%; TRPML1 inh: -10; ClpP mod: 0.4%

Results for COc1ccc2c(c1)OC[C@H]1[C@H]2N2C(=O)CN(CCc3c[nH]c4ccccc34)C(=O)[C@@]2(C)[C@H]1c1ccccc1 ?
gsp agonist: 0%; TRPML1 agonist: 0.1; gsp antagonist: -16%; TRPML1 inh: -14; ClpP mod: -12%

What do the screens show for `O=C(CSc1nc2c([nH]c3ccccc32)c(=O)n1-c1ccccc1)N1CCCc2ccccc21`?
TRPML1 agonist: 1.0; TRPML1 inh: 10; ClpP mod: -23%

Results for Cc1cc(C)c2c(=O)cc(C(=O)Nc3ccccc3C(F)(F)F)oc2c1 ?
TRPML1 agonist: -1.1; TRPML1 inh: -5; ClpP mod: 1.9%

Results for CC(C)[C@H]1C=C(C(=O)O)O[C@@H](OCCCCO)C1 ?
TRPML1 agonist: -0.4; gsp antagonist: 4%; Menin MLL FP FL: 0.0; TRPML1 inh: 4; ClpP mod: -1.9%

Results for c1ccc(CCNCC2COc3ccccc3O2)cc1 (configuration not stated) ?
gsp agonist: inconclusive; TRPML1 agonist: 1.8; gsp antagonist: 2%; Menin MLL FP FL: 0.3; TRPML1 inh: 18; ClpP mod: -2.5%

What do the screens show for `O=C(Nc1nc2ccccc2s1)C1CC(=O)N(c2ccccc2)C1` (configuration not stated)?
gsp agonist: -34%[inhibitor]; TRPML1 agonist: -0.1; gsp antagonist: -3%; Menin MLL FP FL: 0.9; TRPML1 inh: 11; ClpP mod: -2.6%

How did COc1cccc(-c2cnc3c(NC(C)=O)cc(-c4ccccc4OC)cn23)c1 do in these assays?
TRPML1 agonist: -0.3; TRPML1 inh: -13; ClpP mod: 4.7%

How did CC(C)n1c(CNC(=O)c2ccccc2F)nnc1SCC(=O)c1ccc(F)cc1 do in these assays?
gsp agonist: 5%[15.4 µM]; TRPML1 agonist: 0.2; gsp antagonist: -4%; TRPML1 inh: -9

What do the screens show for `c1ccc(-c2cncnc2)cc1`?
gsp agonist: -1%; TRPML1 agonist: 0.4; gsp antagonist: -1%; TRPML1 inh: 6; ClpP mod: -2.0%

How did O=[N+]([O-])c1cccc(S(=O)(=O)NCCc2cn3ccccc3n2)c1 do in these assays?
gsp agonist: 3%; gsp antagonist: 5%; Menin MLL FP FL: -1.3; ClpP mod: -0.9%

How did COc1ccc(NC(C)=O)cc1S(=O)(=O)NC(Cc1ccccc1)C(=O)NC(C)c1ccccn1 (configuration not stated) do in these assays?
gsp agonist: inconclusive; TRPML1 agonist: -0.7; gsp antagonist: 4%; TRPML1 inh: -5; ClpP mod: -1.7%

What do the screens show for `C=CCN1C(=O)c2ccc(C(=O)N(C)CC(=O)Nc3ccc(Br)cc3C)cc2C1=O`?
gsp agonist: -14%[15.4 µM]; TRPML1 agonist: -0.8; gsp antagonist: -7%; TRPML1 inh: 6

How did Cc1ccc(S(=O)(=O)Nc2nc3ccccc3nc2N2CCc3ccccc3C2)cc1 do in these assays?
gsp agonist: 25%; TRPML1 agonist: -0.1; gsp antagonist: -20%; Menin MLL FP FL: 0.6; TRPML1 inh: 35; ClpP mod: -16%

How did O=C(O)c1cc2ncc(-c3[nH]ncc3[N+](=O)[O-])cn2n1 do in these assays?
gsp agonist: 22%; TRPML1 agonist: 0.6; gsp antagonist: 3%; Menin MLL FP FL: -3.5; TRPML1 inh: 3

Results for CCOC(=O)C1(CC2CCCCO2)CCN(S(=O)(=O)c2ccsc2)CC1 (configuration not stated) ?
gsp agonist: 9%; TRPML1 agonist: 0.4; gsp antagonist: 5%; Menin MLL FP FL: 0.0; TRPML1 inh: -16; ClpP mod: -0.4%

How did Cc1ccc(C)c(NC(=O)CSc2nnc(C)c(=O)n2N)c1 do in these assays?
gsp agonist: 3%; TRPML1 agonist: 0.9; gsp antagonist: 9%; Menin MLL FP FL: 6.5; TRPML1 inh: 18; ClpP mod: -1.0%

Results for COc1cc(OC)c(NC(=O)c2cc3c(s2)-c2ccc(Cl)cc2SC3)cc1Cl ?
TRPML1 agonist: 1.6; TRPML1 inh: -19; ClpP mod: -2.0%

How did Cc1cc(OCC(=O)OCC(=O)N(C)Cc2ccccc2C)ccc1Cl do in these assays?
gsp agonist: -15%; TRPML1 agonist: 1.8; gsp antagonist: -2%; TRPML1 inh: -5; ClpP mod: -1.6%

How did COc1ccccc1-n1ccnc1SCC(=O)NC(C)(C)C do in these assays?
gsp agonist: -8%[15.4 µM]; TRPML1 agonist: -1.2; gsp antagonist: 13%; Menin MLL FP FL: -3.0; TRPML1 inh: -9; ClpP mod: 1.0%

How did CCOC(=O)c1cccc(NC(=O)Cn2cc3c(n2)CCC(C)C3)c1 (configuration not stated) do in these assays?
gsp agonist: -16%; TRPML1 agonist: 2.7; gsp antagonist: -7%; Menin MLL FP FL: -1.8; TRPML1 inh: -5; ClpP mod: -3.2%

How did CC(=O)N1CCc2ccc(S(=O)(=O)N3CCN(C)CC3)cc21 do in these assays?
gsp agonist: inconclusive; TRPML1 agonist: -0.4; gsp antagonist: 14%; Menin MLL FP FL: -3.8; TRPML1 inh: -3; ClpP mod: -6.4%

What do the screens show for `C#CCNC(=O)C1=C[C@@H](c2coc3ccccc3c2=O)C[C@@H](OCc2ccc(CO)cc2)O1`?
TRPML1 agonist: -0.3; gsp antagonist: -17%; Menin MLL FP FL: 7.2; TRPML1 inh: -5; ClpP mod: 0.9%

How did N#Cc1nc(COc2ccccc2F)oc1NCCCn1ccnc1 do in these assays?
gsp agonist: -22%; TRPML1 agonist: 0.7; gsp antagonist: -9%; Menin MLL FP FL: 5.8; TRPML1 inh: -12; ClpP mod: -1.8%

How did Cn1cc(CC(=O)NCCCN2CCOCC2)c2ccccc21 do in these assays?
gsp agonist: -35%; TRPML1 agonist: 1.8; gsp antagonist: -8%; Menin MLL FP FL: 0.1; TRPML1 inh: 23; ClpP mod: -28%

Bioassay records (PubChem)
